Screening results as filed in PubChem.
Biofilm kill mix – mixtures killing C. albicans biofilm | inhibition, % at 7.6 µM | AID 1242 | C. albicans biofilm persisters + clotrimazole, fluorescence viability; primary screen in compound mixtures of four per well | actives 0.02% (n = 120,000);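 active = inhibition above 30.3% in the primary screen of four-compound pools, then above 30% when the compound was retested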;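 note: compounds exposed to preformed 24 h biofilms for 48 h; the number belongs to the whole pool; some results filed as inactive read as strong as hits; inactives centre near 12; 0% = biofilm with clotrimazole alone and 100% = kill control; retested singly at about 60 µM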
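System: C. albicans CAF4-2 wild-type biofilms; Medium: RPMI/MOPS medium, pH 7.0; Reagent: Clotrimazole, 50 µg/mL; Times: biofilm formation 24 h, compound exposure 48 h, 37 °C; Detection: 2-h Alamar Blue fluorescence, 535/590 nm excitation/emission; Evaluation: percent inhibition of biofilm viability.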
* marks the source's active call; other numbers are inactive results.

compound | Biofilm kill mix
CC[N+](CC)(CCCCS(=O)(=O)[O-])CCNP1(=O)C=C(c2ccccc2)OC(c2ccccc2)=C1 | 0.0
COc1ccccc1/C=C/C=N/NC(=O)c1ccncc1 | 9.9
Cc1nn(-c2ccccc2)c2c1C(c1cccc([N+](=O)[O-])c1)N(c1ccccc1)C(=O)N2 (stereo unspecified) | 12.1
C=CCN1CC(C)/C(=N\O)CC1C (stereo unspecified) | 26.7
CCOc1ncccc1C(=O)N1CCN(S(=O)(=O)c2ccc3ccccc3c2)CC1 | 15.8
CC(C)(C)OC(=O)NCCC(=O)N/N=C/c1ccc2nccnc2c1 | 13.2
Cn1c(=O)[nH]c(=O)c2c1nc(N1CCOCC1)n2CCc1ccccc1 | 6.7
COc1ccc(C(NC(=O)c2ccccc2F)NC(=O)c2ccccc2F)cc1 | 17.9
COc1ccccc1-n1c(=S)[nH]c2c(sc(=S)n2-c2ccccc2)c1=O | 20.3
Cc1cc(Cl)ccc1OCC(=O)NC(=S)Nc1ccccc1N1CCOCC1 | 12.0
Cc1c(Cl)cnc(NC(=O)COC(=O)c2cccc(S(=O)(=O)N3CCc4ccccc4C3)c2)c1Cl | 11.3
Cc1cc([N+](=O)[O-])nn1CCC(=O)Nc1nccs1 | -4.2

compound | Biofilm kill mix
COc1cc(S(=O)(=O)N2CCC(c3nc4ccccc4s3)CC2)ccc1S(=O)(=O)NC1CCCC1 | 10.5
CC(C)c1ccc(S(=O)(=O)N2CCN(C(=S)NCc3ccco3)CC2)cc1 | 9.1
C=C(C)C(=O)Nc1cccc(C2=NOC3(C2)C[C@H](C(N)=O)N(C(=O)c2ccccc2C(=O)c2ccccc2)C3)c1 (stereo partly specified) | 9.5
CCn1c(-c2ccccc2SC)n[nH]c1=S | 11.1
COCCCN(CCC#N)C(=O)c1c(-c2c(Cl)cccc2Cl)noc1C | 19.1
CCOc1ccc(NC(=O)c2ccc(NCC(=O)N3CCCCCC3)cc2)cc1 | 4.8
Cn1c(Cl)c(/C=N/OC(=O)C2CC2)c2ccccc21 | 16.7
COc1ccc(NC(=O)C2CCC(CNc3c(N4CCCCC4)c(=O)c3=O)CC2)c(OC)c1 (stereo unspecified) | 5.2
Nc1c2c(nc3ccccc13)CCCC2=O | 3.2
CCN(CC)CCOC(=O)c1ccc(NC(=O)CNC(=O)c2ccccc2)cc1 | 3.9
O=C(NCC1OCCCN1S(=O)(=O)c1cc(F)ccc1F)C(=O)NC1CCCCC1 (stereo unspecified) | 13.1
c1coc(CNC2CCCCC2)c1 | 10.8

compound | Biofilm kill mix
O=C(CSc1nc2ccsc2c(=O)n1NC(=O)c1ccccc1)Nc1nccs1 | 13.3
COC(=O)c1ccc(N2NC(=O)/C(=C/c3ccc(-c4ccc(Cl)c(C(=O)O)c4)o3)C2=O)cc1 | 15.1
COc1cc2c(cc1OC)C(=O)NCC(C)(C)O2 | 7.6
C=CCN1C(=O)N/C(=C/c2ccc(N3CCOCC3)o2)C1=O | 9.9
Cc1ccc(S(=O)(=O)N2CCC(=O)N(CCOCc3ccccc3C)CC2)cc1 | -2.5
CC(NS(=O)(=O)c1cccc(Cl)c1)C(=O)N(C)C1CCN(C)CC1 (stereo unspecified) | 20.4
CCOc1cc(N2CCOCC2)c(OCC)cc1NC(=O)c1ccccc1C | 10.5
O=C(CCCN=C1NS(=O)(=O)c2ccccc21)OCc1cc([N+](=O)[O-])cc2c1OCOC2 | 11.5
NCCOc1cnn(-c2ccccc2Cl)c(=O)c1Cl | -0.8
Brc1cccc(Cn2c(-c3cncs3)nc3ccccc32)c1 | 8.8
O=S(=O)(NCC(c1cccnc1)N1CCOCC1)c1ccccc1 (stereo unspecified) | 18.6
c1ccc(-c2cc(-c3ccncc3)nc3ccc4ccccc4c23)cc1 | 9.0

compound | Biofilm kill mix
NC(=O)CCC1NC(=S)N(Cc2ccccc2)C1=O (stereo unspecified) | 11.4
OC(C#CCCN1CCCCC1)(c1ccccc1)c1ccccc1 | 14.7
CCOc1ncccc1C(=O)OCC(=O)Nc1cccc(S(N)(=O)=O)c1 | 3.9
O=C(COC(=O)CSc1ccc2ccccc2c1Br)NC1CC1 | 10.8
CC(=O)c1ccc(N2CCN(C(=O)c3ccc4c(Cl)c5c(nc4c3)CCCC5)CC2)cc1 | 14.4
O=C(CN1C(=O)C2C3C=CC(C3)C2C1=O)Nc1ccc(S(=O)(=O)Nc2nccs2)cc1 (stereo unspecified) | 5.3
Cc1ccc(NC(=O)CN(C)Cc2ccc(Cl)cc2)cc1 | -3.7
CN1C2CCC1/C(=C/c1cccn1C)C(=O)/C2=C\c1cccn1C | 13.7
CC(C)(C)c1cc(=O)n(-c2ccccc2)[nH]1 | 8.0
C/C(CC(=O)Nc1ccc2c(c1)OCO2)=N\NC(=O)c1ccccc1N | 6.5
Cc1cc(C(=O)Nc2ccccc2)oc(=O)c1 | 2.1
Cc1ccnc(NS(=O)(=O)c2ccc(NC(=O)/C=C/c3cccs3)cc2)n1 | 7.1

Copied from the results shown (7 entries):
compound | Biofilm kill mix
NC(=O)CCC1NC(=S)N(Cc2ccccc2)C1=O (stereo unspecified) | 11.4
OC(C#CCCN1CCCCC1)(c1ccccc1)c1ccccc1 | 14.7
CCOc1ncccc1C(=O)OCC(=O)Nc1cccc(S(N)(=O)=O)c1 | 3.9
O=C(COC(=O)CSc1ccc2ccccc2c1Br)NC1CC1 | 10.8
CC(=O)c1ccc(N2CCN(C(=O)c3ccc4c(Cl)c5c(nc4c3)CCCC5)CC2)cc1 | 14.4
O=C(CN1C(=O)C2C3C=CC(C3)C2C1=O)Nc1ccc(S(=O)(=O)Nc2nccs2)cc1 (stereo unspecified) | 5.3
Cc1ccc(NC(=O)CN(C)Cc2ccc(Cl)cc2)cc1 | -3.7

Remaining list, next part:
compound | Biofilm kill mix
Cc1ccc(N/C(=C\C(=O)c2ccccc2)C(=O)O)cc1 | 21.8
COc1ccc2c(c1)cc(C(O)c1ccccn1)n2S(=O)(=O)c1ccccc1 (stereo unspecified) | 7.3
O=C(Nc1ccn(Cc2ccccc2)n1)c1cccc(Cn2cc([N+](=O)[O-])cn2)c1 | 2.5
O=C(c1ccccc1F)N1CCN(c2ccc([N+](=O)[O-])cc2-n2cccc2)CC1 | 17.4
CC(=O)c1cnc(-c2ccccn2)s1 | 5.1
C=CCn1c(=NC(=O)c2ccccc2[N+](=O)[O-])sc2cc(S(C)(=O)=O)ccc21 | 21.1
CCCCn1c(=O)[nH]c(=O)c2c(C(=O)OCC)cc(-c3ccc(OC(F)F)cc3)nc21 | 15.2
O=S(=O)(Nc1nc2cc3c(cc2nc1Cl)OCCO3)c1ccccc1 | 12.1
COc1cc(/C=C/C(=O)N2CCN(C)CC2)cc(S(=O)(=O)N2CCc3ccccc32)c1OC | 7.2
N#Cc1cnn2ccc(-c3ccc4c(c3)CCC4)nc12 | 20.6
C=CCN1C(=O)c2cccc3c(N4CCCCC4)ccc(c23)C1=O | 4.8
O=C(Nc1ccc(F)cc1)N1CCC(c2nc3c(nnn3Cc3ccccc3Cl)c(=O)[nH]2)CC1 | 17.2

mol,Biofilm kill mix
CCN(CC)S(=O)(=O)c1ccc(N(C)CCc2ccc(OC)c(OC)c2)nc1,10.6
COc1ccc(Oc2ccc(-c3ccn[nH]3)cc2)cc1,6.3
COc1ccc(Cc2c3cc(OC)c(OC)cc3cc[n+]2C)cc1OC,9.9
O=C(Nc1ccccn1)c1cc(-c2cccc(Cl)c2)nc2ccccc12,11.7
Cn1nnnc1SCC(=O)N1CCN(S(=O)(=O)c2ccc(Cl)cc2)CC1,11.5
COc1ccc(CC2(CO)CCN(C(C)Cc3ccc(Cl)cc3)CC2)cc1 (stereo unspecified),0.5
Cc1ccccc1Nc1nnc(SCC(=O)Nc2ccccc2[N+](=O)[O-])s1,2.5
O=C(NCC1CCCO1)c1cc(C(=O)C2CCCCC2)c[nH]1 (stereo unspecified),4.5

mol,Biofilm kill mix
COc1ccccc1N1CCN(C2CCN(S(=O)(=O)c3ccc(C)cc3)CC2)CC1,20.9
O=C(C[n+]1ccc2ccccc2c1)c1cccc2ccccc12,17.6
Cc1nc(N/N=C/c2ccccn2)sc1C,9.1
O=C(O)c1ccc(-c2nc(-c3ccccc3)c(-c3ccccc3)[nH]2)cc1,12.1
COC(=O)c1ccccc1NC(=S)NC(C)=O,22.3
C/C(=N\NC(=O)c1nnn(-c2nonc2N)c1COc1ccc(F)cc1)c1ccc(Cl)cc1,22.9
O=c1[nH]c(CN2CCN(c3ccccc3)CC2)nc2scc(-c3ccccc3)c12,3.8
COc1cc(C(=O)NC(CCSC)C(=O)OCC(=O)C(C)(C)C)cc(OC)c1OC (stereo unspecified),7.0

mol,Biofilm kill mix
CCOC(=O)c1nc(C)c(C(C)=O)s1,17.0
CN1CCSc2ccc(C(=O)Nc3cccc(F)c3)cc21,23.6
CCCCc1ccc(NC(=S)NCCCN2CCOCC2)cc1,7.6
O=S(=O)(c1ccc(Oc2ccc(S(=O)(=O)N(CCO)CCO)cc2)cc1)N(CCO)CCO,17.3
COc1ccc(CC2(CO)CCN(Cc3cnc(-c4ccccc4C)nc3)CC2)cc1,9.6
CCN(Cc1ccncc1)C(=O)c1cc(Br)cc(Br)c1O,3.3
O=C1N(C2CCCC2)C[C@@H]2C[C@@H](c3cn[nH]c3-c3ccc(Cl)cc3)N3CCC[C@@]123,1.9
O=C(Nc1ccc(F)c([N+](=O)[O-])c1)c1cccs1,6.0

mol,Biofilm kill mix
Cc1cc(C2=NNC(=Nc3ccc(S(=O)(=O)N4CCOCC4)cc3)SC2)c(C)n1C,17.1
C/C(=N\NC(=S)NC(C)C)c1ccco1,-18.2
CCN(CC)CCC(C)OC(c1ccccc1)c1ccccc1 (stereo unspecified),13.3
CCCCOC(=O)/C(=C/c1cn(C)c2ccccc12)NC(=O)c1ccc(OC)cc1,8.1
CCCCS(=O)c1snnc1C (stereo unspecified),0.9
CCOC(=O)c1cc(-c2ccc(N3CCOCC3)cc2)nn1-c1ccc(F)cc1F,12.1
CN(C)S(=O)(=O)c1ccc2c(c1)nc(CCC(=O)O)n2C,12.2
CCC(=O)NCCc1nc2cc(NC(=O)c3cccs3)ccc2n1C,19.5

mol,Biofilm kill mix
O=C(Nc1ccc(F)cc1F)c1csc(-c2ccccc2)n1,-2.8
Cc1nn(C(C)C)c(C)c1CN1CCCC(CCC(=O)NCc2ccccc2F)C1 (stereo unspecified),20.8
O=C(CCl)Nc1nc(-c2ccco2)c(-c2ccco2)s1,7.5
O=C(NC(=S)Nc1ccc(O)cc1)c1ccccc1Cl,13.1
Cc1cc(C)nc(SCC(=O)NNC(=O)c2ccccc2C)n1,6.5
OC(CNCc1ccc2c(c1)OCO2)COc1ccc(F)cc1 (stereo unspecified),15.0
CC(=O)Nc1ccc(-c2csc(Nc3cccc(C)n3)n2)cc1,5.0
COc1cccc(/C=N/n2c(=O)[nH]c3ccccc32)c1OC,-3.0

mol,Biofilm kill mix
O=C(O)c1ccc(CSc2nc(-c3ccccc3)cc(C(F)(F)F)n2)cc1,6.0
COc1ccc(OC)c(-c2c3cc(O)c(=O)cc-3oc3cc(O)c(O)cc23)c1,18.4
COc1cc(/C=N/N=C2/NC(=O)C(CC(=O)O)S2)ccc1OCc1ccc(Cl)cc1 (stereo unspecified),10.2
COc1cc(C2NCCc3c2[nH]c2ccccc32)ccc1OC(C)C (stereo unspecified),20.2
COc1cc([N+](=O)[O-])cc(/C=N/NC(=O)CC#N)c1O,17.9
Cc1ccccc1C(=O)NNC(=O)CSc1nc(-c2ccccc2)cc(=O)[nH]1,24.8
Cc1cc(/C=C(\C#N)C(=O)O)c(C)n1C1CC1,10.2
CCSc1nnc(NC(=O)CSc2nc3c(c(=O)n2-c2ccccc2OC)SCC3)s1,19.7

Exported field by field: 3 of the compounds above.
COc1cc(C2NCCc3c2[nH]c2ccccc32)ccc1OC(C)C (stereo unspecified)
  Biofilm kill mix: 20.2
COc1cc([N+](=O)[O-])cc(/C=N/NC(=O)CC#N)c1O
  Biofilm kill mix: 17.9
Cc1ccccc1C(=O)NNC(=O)CSc1nc(-c2ccccc2)cc(=O)[nH]1
  Biofilm kill mix: 24.8

Other records.
mol,Biofilm kill mix
COc1ccc(C(C(=O)NC2CCCC2)N(CC2CCCO2)C(=O)Cn2nnc(-c3ccc(C)o3)n2)cc1 (stereo unspecified),9.9
O=C1CN(C(=O)COC(=O)/C=C/c2ccco2)c2ccccc2N1,-4.2
CS(=O)(=O)N1CCN(c2ccc(NC(=S)NC(=O)c3cccs3)cc2)CC1,12.9
CCc1cccc(NC(=S)Nc2ccc(CN3CCOCC3)cc2)c1,7.0
COc1ccc(C(O)P(=O)(OCC(C)C)OCC(C)C)c(OC)c1 (stereo unspecified),13.8
COc1cc(Cl)c(S(=O)(=O)N2CCCC2)cc1Cl,15.2
O=C(CN(c1ccc2c(c1)OCCO2)S(=O)(=O)c1ccccc1)N1CCN(Cc2ccccc2)CC1,12.4
CCN(c1cccc(C)c1)S(=O)(=O)c1ccc2c3c(cccc13)C(=O)N2,10.7

mol,Biofilm kill mix
O=C(Nc1ccc([N+](=O)[O-])cc1)Nc1ccc2c(c1)OCCO2,18.3
NS(=O)(=O)c1cc2c(cc1Cl)NC=NS2(=O)=O,17.6
COc1ccc(NC(=O)COC(=O)c2cc(SC)ccc2Cl)c(OC)c1,14.2
COc1ccccc1OC(C)C(=O)NNC(=S)NC1CCCC1 (stereo unspecified),9.5
O=C(CSc1ccccn1)N/N=C/c1cccc([N+](=O)[O-])c1,-6.0
Cc1cc(C)n2nc(/C(C#N)=C/c3ccccn3)c(C#N)c2n1,13.4
CCCCSCCCNC(=O)Nc1ccc(CC)cc1,14.7
Cc1nn(-c2ccccc2)c(Cl)c1/C=C1\SC(=S)N(CCCCCC(=O)O)C1=O,14.6
CCS(=O)(=O)c1ccc2c(c1)NC(=O)C(CCO)O2 (stereo unspecified),11.5

Not all compounds are listed; the hit share may differ from the screen's.
